RanGTP-Imp inh = inhibitors of RanGTP-importin-beta interaction, primary screen, biochemical, FRET, CFP-Ran, YFP-importin-beta, homogeneous | inhibition, % (concentration not given with the values) | cell-free CFP-Ran/YFP-importin-beta FRET ratio | 1.1% of 300,000 active;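 active means most replicates above 15%; inconclusive means exactly half above 15%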;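 further: 0% = DMSO wells and 100% = Ran loaded with GDP instead of GTP; wells of about 40 µL received 100 nL stock; the first replicate is given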
AF4-AF9 inh = blocks AF4 peptide binding to human AF9 | P42568 | AlphaScreen, biotin-AF4 peptide binding to FLAG-AF9 | inhibition, % at 10 µM | 0.47% of 350,000 active;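 active means every replicate reaching a set inhibition limit, whatever the replicate mean, cut at about 25% in these data; inconclusive means mean inhibition reaches that limit but some replicates miss it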;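 further: 0% = plate neutral control median and 100% = total signal loss; the record names both 10 and 1 µM as test concentration; the first replicate is given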
Target sequence (P42568 whole entry, looked up): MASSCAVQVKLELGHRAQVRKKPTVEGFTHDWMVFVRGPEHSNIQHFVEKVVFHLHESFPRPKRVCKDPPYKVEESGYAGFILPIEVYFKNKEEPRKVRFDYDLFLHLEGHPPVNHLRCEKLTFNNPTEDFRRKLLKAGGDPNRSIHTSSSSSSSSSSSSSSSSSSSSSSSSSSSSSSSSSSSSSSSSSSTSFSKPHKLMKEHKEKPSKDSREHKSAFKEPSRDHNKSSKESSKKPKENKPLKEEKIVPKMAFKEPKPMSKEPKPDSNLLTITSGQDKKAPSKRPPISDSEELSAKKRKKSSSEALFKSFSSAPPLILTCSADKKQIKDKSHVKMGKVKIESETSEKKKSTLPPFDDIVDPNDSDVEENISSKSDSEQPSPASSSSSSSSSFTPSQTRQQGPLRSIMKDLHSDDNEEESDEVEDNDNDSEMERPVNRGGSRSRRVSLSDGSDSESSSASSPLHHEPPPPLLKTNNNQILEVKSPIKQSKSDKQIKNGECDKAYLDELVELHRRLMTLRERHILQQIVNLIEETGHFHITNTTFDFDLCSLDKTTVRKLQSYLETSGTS
T cruzi inh = blocks replication of Trypanosoma cruzi | T. cruzi beta-gal in NIH3T3, luminescence, 90 h | 1.4% of 300,000 active | AID 1885 | inhibition, % (no concentration beside the values);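 active means mean inhibition across valid replicates above about 55%, limit read from the data; inconclusive means mean below that limit but half or more replicates reach it; inactive means mean below it, under half of replicates reach it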;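 further: signal also drops with host cell toxicity which is not excluded here; 0% = plate median of DMSO wells and 100% = zero luminescence signal; higher percent means less beta-gal luminescence so fewer parasites; stock transfer was 50 nL into about 50 µL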
Bfl-1 A1 inh = inhibitors of the anti-apoptotic protein A1, read as caspase activation; MEF A1-2A-BIM cells, Caspase-Glo 3/7 luminescence, 3 h; percent of clofoctol response, vehicle zero; 0.066% of 330,000 active; caspase activation, % (concentration not given with the values);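 active means over half of replicate activation scores above 10%, or exactly half above 10 with the replicate mean above 10; inconclusive means replicate mean below 10 yet half the replicates above 10; inactive means over half of replicates below 10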;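 further: wells of about 30 µL received 50 nL stock; many hits fall short of the cut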
Ecoli rRNA inh = selective bacterial rRNA inhibition in E. coli; E. coli WT GFP vs humanized-ribosome RFP mutants, fluorescence, 24 h; hits give low values; DMSO median 0, no signal -100; GFP signal change (wild-type ribosome), % (no concentration beside the values); 1.6% of 350,000 active; AID 720706;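 active means significant combined selectivity score with lowered wild-type GFP, culture density cut under 30%, mutant RFP and density less affected; inactive means any of these conditions unmet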; further: one replicate is shown; some compounds called inactive have numbers as strong as hits
Vif A3G = HIV-1 Vif–A3G interaction blockers – biochemical, TR-FRET, GST-Vif 1-94, biotin-A3G peptide, dose response retest, primary screen (AID 1117319). 0.57% of 260,000 active. inhibition, %, or IC50 in µM where a hit was titrated. TR-FRET GST-Vif / biotin-A3G peptide binding; higher % means a stronger effect; test concentration not given here; strong numbers were not always called active;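 active means above the screen mean plus three standard deviations and confirmed in dose response; inconclusive means results disagree or hit not tested in dose response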;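 further: Vif residues 1-94 fused to GST binding biotinylated APOBEC3G peptide 110-148; 0% = full assay without inhibitor and 100% = GST in place of GST-Vif; retest series ran down from 100 µM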
Calb FLC = C. albicans growth modulation with fluconazole; C. albicans CaCi-2 (fluconazole-resistant clinical isolate) + fluconazole, Alamar Blue growth, 48 h; growth inhibition, % (concentration not given with the values); 0.57% of 300,000 active;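 active means most replicates above 75%; inconclusive means exactly half above 75%; inactive means most below 75%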;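 further: all wells also contain fluconazole at 8 µg/ml as a sub-toxic cotreatment; 0% = median of DMSO wells and 100% = median of geldanamycin control wells; wells of about 8 µL received 7.5 nL stock; the first replicate is given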
Beta cell apopt = blocks beta cell apoptosis. protection from apoptosis, % (no concentration beside the values). INS-1E cytokine-induced death, ATP luminescence, 48 h; percent of positive-control rescue, neutral wells zero. 0.8% of 300,000 active;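 active means all replicates at 75% or more, or half of them and the mean; inconclusive means half reach 75% but not the mean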;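 further: 0% = cytokine-treated negative control wells and 100% = positive control rescue; higher means more ATP so stronger rescue from cytokine killing; wells of about 40 µL received 100 nL stock; the first replicate is given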
Ecoli rRNA inh OD600 = recorded beside Ecoli rRNA inh, whose call it bears; OD600 change, %; measured here: OD600 growth;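 optical density of the mix in the first replicate; 0 = DMSO median and -100 = no signal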
Ecoli rRNA inh RFP = further read-out of Ecoli rRNA inh, marked with its call; RFP signal change, %; measured here: RFP humanized mutant strains;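 first replicate; 0 = DMSO median and -100 = no signal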
The depositor's hits bear a star; ? = inconclusive; · = not tested or not shown. Not all compounds are listed; the hit share may differ from the screen's.

SMILES	RanGTP-Imp inh	AF4-AF9 inh	T cruzi inh	Bfl-1 A1 inh	Ecoli rRNA inh	Ecoli rRNA inh OD600	Ecoli rRNA inh RFP	Vif A3G	Calb FLC	Beta cell apopt
COc1ccc(CCNC(=O)c2nnn(CC(=O)Nc3ccccc3C)c2N)cc1OC	1.0	·	-3	0.4	·	·	·	5%	4	-5
CN(C)S(=O)(=O)c1cc(NC(=O)C2=COCCO2)ccc1Cl	·	0.1	·	-0.8	5	7	-1.5	-4%	·	-2
COc1ccccc1OCC(=O)NNC(=O)CCCC(=O)NNC(=O)COc1ccccc1OC	-1.3	-5.9	0	-2.9	12	2	3.5	-2%	-1	-2
COc1ccc(CNC(=O)CN2C(=O)COc3ccc(S(=O)(=O)N4CCCCC4)cc32)cc1	3.6	0.0	-7	-0.1	-1	4	-1.0	·	10	-4
CCOc1c(C)cnc2c1c(=O)n(Cc1ccc(Cl)cc1)c(=O)n2C	-5.3	-0.7	7	1.6	1	13	-3.3	·	-2	-1
COc1ccc(NC(=O)Cc2c(F)cccc2Cl)c(OC)c1	0.0	·	-4	0.5	·	·	·	·	2	-2
CCOc1ccc(N(CC(N)=O)S(=O)(=O)c2ccc(F)cc2)cc1	-0.4	·	-12	0.1	·	·	·	-1%	-5	2
CCC(=O)N=C1SC2CS(=O)(=O)CC2N1c1cccc(OC)c1 (stereo not given)	2.1	·	-12	-0.1	·	·	·	6%	3	-1
Cc1ccc(SCCC(=O)N/N=C/c2ccccc2O)cc1	6.4	·	17	-0.1	·	·	·	4%	92*	42
NC(=O)c1ccsc1NC(=O)COC(=O)c1cnccn1	·	-3.2	·	-0.2	11	12	1.4	·	·	-2
COc1ccc2cc(CN(Cc3cccnc3)Cc3nnnn3Cc3ccccc3)c(=O)[nH]c2c1	-1.6	6.0	62*	0.3	-28*	-19*	-4.9*	-9%	9	-6
OCc1cnc(SCc2ccccc2)n1Cc1ccccc1	-4.0	1.1	-7	1.1	-34	-42	-5.1	-11%	-22	1
CC(C)(C)NS(=O)(=O)CC12CCC(CC1=O)C2(C)C (stereo not given)	?	·	-5	-0.4	·	·	·	28%	1	-5
O=c1c2c([N+](=O)[O-])cc([N+](=O)[O-])cc2nc2ccccn12	-3.3	-15	-4	0.6	6	11	3.2	·	8	1
O=C(CCS(=O)(=O)c1ccc(F)cc1)Nc1nc(-c2ccccn2)cs1	3.7	-7.5	-13	1.8	-15	-33	-4.5	·	45	2
CC(=O)Nc1cccc(Oc2ccc3c(c2)C(=O)N(CCC(=O)O)C3=O)c1	-5.4	·	-18	0.2	·	·	·	22%	-3	-2
Cc1cccc(NC(=O)N2CCC(c3nc4ccccc4o3)CC2)c1	-1.7	·	·	1.3	·	·	·	-2%	23	7
COc1ccccc1-n1c(SCC(=O)Nc2cccc(C(=O)O)c2)nnc1-c1ccccc1O	-1.6	-0.2	-4	0.1	4	7	0.0	·	1	·
O=C(NNC(=O)C1CC2CCC1C2)c1sc2ccccc2c1Cl (stereo not given)	3.0	·	6	-2.2	·	·	·	·	18	·
CC/C(=N\NC(=O)C1CC1)c1cccc(Cl)c1	-0.8	1.0	-1	-0.5	6	0	-0.3	-2%	0	-1
O=C(c1cnccn1)N1CCc2c([nH]c3ccccc23)C1c1cccc(Cl)c1 (stereo not given)	?	9.0	45	-1.2	-30	-58	11	9%	33	9
O=C(CN1CCCC1)N1c2ccccc2Sc2ccc(C(F)(F)F)cc21	1.1	·	17	1.3	·	·	·	1%	8	2
O=C(Cn1nnc2ccccc21)Nc1ccccc1[N+](=O)[O-]	-0.1	0.4	-14	-0.8	7	7	0.9	7%	0	0
Cn1c(CNc2ccc(Cl)cc2)nnc1SCCN1CCCCC1	3.7	·	5	0.2	·	·	·	-1%	-15	-3
Cc1ccccc1-n1nc(CSc2nc3ccccc3[nH]2)c(-c2ccccc2)c1N	2.2	2.6	11	0.2	-23	-16	-21	-5%	15	-1
Cc1ccc(N(C(C)C(=O)Nc2ccccc2C(=O)N2CCOCC2)S(C)(=O)=O)cc1C (stereo not given)	-1.2	·	6	-0.8	·	·	·	6%	1	4
COc1ccc(C2Nc3ccccc3C(=O)N2NS(=O)(=O)c2ccc(C)cc2)c(OC)c1 (stereo not given)	-6.0	0.3	3	-0.2	·	·	·	1%	-1	-7
COC(=O)C1=C(C)Nc2nc(SCc3ccccc3)[nH]c(=O)c2C1c1cccs1 (stereo not given)	1.7	49*	0	-0.1	3	10	12	14%	6	·
Cc1cccc(C)c1OCC(=O)NNC(=O)CCNC(=O)c1ccco1	-1.7	-4.7	-2	0.7	-1	-14	-2.8	-12%	5	·
O=C1[C@H]2[C@@H](c3ccc(F)cc3)N3C(=O)N(c4cccc(Cl)c4)C(=O)[C@@]3(Cc3ccc(Cl)cc3)[C@H]2C(=O)N1C1CCCCC1	-0.2	-7.4	34	-0.1	8	13	0.0	·	19	21
O=S(=O)(NCCSc1nc2ccccc2o1)c1ccccc1	-1.3	·	4	0.8	·	·	·	0%	54	-3
Cc1ccc(S(=O)(=O)Nc2c(C)n(C)n(-c3ccccc3)c2=O)cc1C(=O)NCc1ccccc1	·	-2.6	·	0.3	4	1	1.8	-7%	·	2
CO/N=C/C=C1/N(C)c2ccccc2C1(C)C	5.4	-4.1	-3	1.2	-17	-11	5.1	-2%	-7	1
c1ccc(CNc2c3c(nc4ncnn24)CCCC3)nc1	1.2	·	-10	-0.2	·	·	·	1%	9	6
COc1ccc(N(CC(=O)Nc2cc(C)on2)S(=O)(=O)c2cc(C)ccc2C)cc1	2.7	·	1	-0.4	·	·	·	?	10	-7
CCOc1ccc2nc(Cl)c(C3CC(c4ccccc4)=NN3C(=O)c3cccs3)cc2c1 (stereo not given)	1.4	0.6	1	-1.0	19	16	2.2	70%	-8	30
COc1ccc(/C=C/C(=O)Oc2cc(O)cc(O)c2)cc1	5.3	-24	-12	-0.2	-7	2	0.9	2%	-6	5
O=C(C#Cc1ccccc1)c1ccc([N+](=O)[O-])cc1	-2.9	·	11	·	·	·	·	32%	1	·
O=C1NC(=O)C(CC(=O)N(c2ccccc2)C2(C(=O)NC3CCCC3)CCCCC2)N1 (stereo not given)	4.6	·	-2	-0.4	·	·	·	-2%	0	4
Fc1ccc(-c2nnc3n2CCCCC3)cc1	-1.2	-1.7	-10	-0.2	7	9	2.0	-1%	19	-3
CC1(C)CC(=O)C2=C(C1)OC(N)=C(C#N)C2C#Cc1ccccc1 (stereo not given)	6.1	·	-15	0.4	·	·	·	6%	0	-1
NC(=O)CNc1n[nH]c(=S)[nH]c1=O	-3.3	-2.9	-16	0.3	·	·	·	1%	-19	-3
COc1ccc(CC2(CO)CCN(Cc3ccc(OC(F)(F)F)cc3)CC2)cc1	-1.9	0.6	39	0.6	2	-3	-2.1	26%	4	7
CCNC(=O)C(=O)NCCC1CCCCN1S(=O)(=O)c1cccs1 (stereo not given)	4.9	-0.9	2	0.1	8	0	2.5	·	-3	·
COC(=O)N1c2ccccc2C=Cc2ccccc21	0.6	-7.3	3	0.2	-22	-24	-3.6	·	-2	-3
COc1ccc(-c2c(NC(=O)c3ccco3)n(C)c3ccccc3c2=O)cc1	-1.9	-4.4	-6	·	·	·	·	0%	2	·
Cc1c(Cl)cccc1NC(=S)N1CCCCCC1	3.5	0.7	-7	0.3	0	0	1.1	10%	9	0
O=S(=O)(c1ccc2oc3ccc(S(=O)(=O)N4CCCCC4)cc3c2c1)N1CCCCC1	0.3	·	16	0.0	·	·	·	-2%	-3	-10
O=C(NCc1cccc(Br)c1)C1CC(c2ccccc2[N+](=O)[O-])=NO1 (stereo not given)	0.1	-0.1	2	0.6	-26	-24	3.2	·	1	3
COc1ccc(Cl)cc1NC(=O)CSc1nc(NS(=O)(=O)c2ccc(C)cc2)cc(=O)[nH]1	?	0.6	0	0.2	8	-2	3.7	9%	26	5
C=CC[C@@H]1C=C[C@H](O/N=C/[C@@H](NS(=O)(=O)c2ccc(C)cc2)[C@H](C)/C=C/CC(=O)OC)[C@@H](CO)O1	-0.1	·	-12	-0.1	·	·	·	19%	4	-3
Cc1ccccc1OCC(=O)Nc1cnn(CCCC(=O)O)c1	-2.7	-9.3	-17	-0.9	-4	-4	1.1	·	-1	-5
C/C(=N\NS(=O)(=O)c1ccc(C)cc1)c1ccc(Br)s1	-3.0	·	-7	0.3	·	·	·	6%	28	-5
CCOC(=O)c1cccc(OCC(O)CNCCOc2ccccc2F)c1 (stereo not given)	2.2	-3.7	9	-0.9	-4	-8	-0.3	·	-21	-13
Cc1nn(Cc2ccc(Cl)cc2)c(C)c1NC(=O)/C=C/c1cnn(C)c1	2.4	·	-17	0.6	·	·	·	·	-8	5
Cc1ccccc1Cn1c([N+](=O)[O-])cnc1C	2.0	3.1	-14	1.0	9	-3	10	?	-2	-3
O=C(CSc1nnc(Cc2cccs2)n1CCc1ccccc1)N1CCCc2ccccc21	4.9	·	1	-0.4	·	·	·	13%	-24	11
CC(=O)Nc1ccc(NC(=O)C(C)OC(=O)CNC(=O)c2sc3ccccc3c2Cl)cc1 (stereo not given)	0.4	·	-2	0.2	·	·	·	10%	-4	0
Cc1c(Cc2ccccc2)c(=O)oc2cc(OCC(=O)N[C@@H](Cc3ccccc3)C(=O)O)ccc12	1.7	-2.4	1	2.1	-3	8	-0.8	·	1	4
O=C(Nc1ccc(Cl)cc1)Nc1ccc(Br)cn1	0.2	-2.2	11	1.2	7	11	-2.5	1%	-5	1

(further entries)
SMILES	RanGTP-Imp inh	AF4-AF9 inh	T cruzi inh	Bfl-1 A1 inh	Ecoli rRNA inh	Ecoli rRNA inh OD600	Ecoli rRNA inh RFP	Vif A3G	Calb FLC	Beta cell apopt
Cc1cccc(C(=O)O[C@@H]2[C@H](Cc3ccccc3)NS(=O)(=O)[C@H]3C[C@@H]4C=C[C@]23O4)c1	·	-3.1	·	0.5	-3	-4	1.5	·	·	0
COc1ccc(Cl)cc1NC(=O)c1cc(-c2ccc(C)cc2O)n[nH]1	7.6	-7.8	-2	1.5	6	4	3.7	-5%	-1	0
COc1ccc(NC(=O)N2CCC(Cc3ccccc3)CC2)cc1	0.8	-2.3	6	0.4	-4	-6	-1.7	-6%	1	4
COC(=O)c1sc(-c2cccs2)cc1N	1.8	7.0	5	-0.2	·	·	·	-14%	-2	·
C/C(=N\NC(=O)c1ccccc1O)c1cccc(NC(=O)c2ccccc2)c1	-2.2	2.6	-7	0.2	-39	-37	-6.6	2%	2	9
Cc1cc(C(=O)N[C@H](c2ccccc2)[C@@]2(C)C[C@@H]2[C@@H](C)C(=O)Nc2ccc3ccccc3c2)n(C)n1	-3.4	-8.6	26	1.5	-8	-16	5.9	6%	2	0
O=C(CSc1ccc(Cl)cc1)Nc1ccccc1N1CCN(C(=O)c2ccc(Cl)cc2)CC1	2.3	1.1	49	0.7	5	2	-6.5	·	-7	·

High-throughput results as filed in PubChem.
